# VCAM-1 rise = boosters of cytokine-driven VCAM-1 levels – cell-based, plate reader, pooled HUVEC, TNFa stimulus (AID 455); HUVEC TNFa-induced VCAM-1 immunofluorescence, plate reader; numbers were filed only for top-ranked candidate wells; augmentation, % at 5 µM; actives 0.2% (n = 10,000);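 active means a compound raising TNF-alpha-driven VCAM-1 surface staining, with its hit status upheld on visual or statistical review; inactive means the rest, including hits rejected on review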;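 further: 0% = TNFa with vehicle and 100% = strongest image-checked hit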
# Proteasome disasm = blocks ATP-dependent breakdown of the yeast 26S proteasome; anti-FLAG beads, GFP-proteasome disassembly, flow cytometry; inhibition of disassembly, % (concentration not given with the values); actives 0.2% (n = 24,000);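 active means above 40%; inconclusive means likely self-fluorescent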;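 further: plate controls were ATP control with full disassembly for no effect and ATP-gamma-S intact proteasomes for full effect; higher percent means more bead fluorescence retained so stronger block of disassembly; stock transfer was 100 nL into about 10 µL; wells with too few beads may also be inconclusive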
# An asterisk follows results filed as active; i = inactive; ? = inconclusive; . = not tested or not shown.
# Below each compound – VCAM-1 rise | Proteasome disasm
> O=C(CNS(=O)(=O)c1ccc(Br)s1)N1CCC2(CC1)OCCO2
  . | 0.3
> COc1ccc(OC)c(C(O)C(C)N)c1 (stereo unspecified)
  i | 0.0
> CN(C)[C@@H]1C(=O)C(C(N)=O)=C(O)[C@@]2(O)C(=O)C3=C(O)c4c(O)cccc4[C@@](C)(O)[C@H]3[C@H](O)[C@@H]12
  i | 0.6
> Cc1ccc(C2CC(=O)C(C=NCCN3CCN(C(=O)Cc4ccccc4)CC3)=C(O)C2)cc1 (stereo unspecified)
  . | -0.1
> CC(C)C(=O)N1CCN(CCN=Cc2c(O)n(C)c(=O)n(C)c2=O)CC1
  i | 0.0
> Cc1cccc(CS(=O)(=O)Cc2ccc(C(=O)N3CCC4(CC3)OCCO4)o2)c1
  . | -1.1
> O=c1[nH]c(=O)n(Cc2ccc(F)cc2)c(O)c1C=NCCCN1CCOCC1
  i | 2.9
> Cc1ccc(C2C(S(C)(=O)=O)=C(O)C(=O)N2c2ccccc2)cc1 (stereo unspecified) (tested in a mixture with another compound)
  . | -0.6
> Cn1c(O)c(C=NCc2ccco2)c(=O)n(C)c1=O
  i | -1.4
> C=CCn1c(O)c(C=NCCN(C)C)c(=O)[nH]c1=O
  i | 2.7
> Cc1ccc(C2N(c3cc(C)on3)C(=O)C3CCCN32)cc1 (stereo unspecified)
  . | 1.1
> O=C(Cn1c(=O)c(C(F)(F)F)nc2ccccc21)N1CCC2(CC1)OCCO2
  . | -1.3
> CCCC(C)(COC(N)=O)COC(=O)NC(C)C (stereo unspecified)
  i | -2.2
> CN1CCC(N(C)c2ncnc3ccc(Br)cc23)CC1
  i | -1.5
> O=C(C(Cc1ccccc1)NS(=O)(=O)c1cccc2nsnc12)N1CCC2(CC1)OCCO2 (stereo unspecified)
  . | -8.0

# Overlap with the part before: five compounds; new compounds follow.
# Below each compound – VCAM-1 rise | Proteasome disasm
> Cc1ccc(C2N(c3cc(C)on3)C(=O)C3CCCN32)cc1 (stereo unspecified)
  . | 1.1
> O=C(Cn1c(=O)c(C(F)(F)F)nc2ccccc21)N1CCC2(CC1)OCCO2
  . | -1.3
> CCCC(C)(COC(N)=O)COC(=O)NC(C)C (stereo unspecified)
  i | -2.2
> CN1CCC(N(C)c2ncnc3ccc(Br)cc23)CC1
  i | -1.5
> O=C(C(Cc1ccccc1)NS(=O)(=O)c1cccc2nsnc12)N1CCC2(CC1)OCCO2 (stereo unspecified)
  . | -8.0
> COC(=NC1CCCC1)C(O)c1c[nH]c2ccccc12 (stereo unspecified)
  i | 3.1
> CCN1CCC2(CCNC2)C1 (stereo unspecified)
  . | 0.9
> CC(=NCCCN1CCOCC1)c1c(O)n(-c2ccccc2C)c(=O)[nH]c1=O
  i | -2.1
> CN(C)c1ccc(NC(=O)CN2C(=O)CN=C(c3ccccc3)c3ccccc32)cc1
  . | -3.1
> Cn1c2ccccc2c2c(C(=O)N3CCC4(CC3)OCCO4)cn(C3CCCCC3)c(=O)c21
  . | 4.3
> CCn1c(=O)cc(SCC(=O)N2CCC3(CC2)OCCO3)c2ccccc21
  . | 1.6
> CC(C)C(=O)c1cn(Cc2ccccc2C#N)c2ccccc12
  i | 1.4
> C[N+]1(C)[C@@H]2CC(OC(=O)[C@H](CO)c3ccccc3)C[C@H]1[C@@H]1O[C@@H]12 (stereo partly specified)
  i | 0.4
> CCC(=O)N1c2ccc(S(=O)(=O)CCC(=O)N3CCC4(CC3)OCCO4)cc2CC1C (stereo unspecified)
  . | 1.4
> O=P(C(c1c[nH]c2ccccc12)N1CCOCC1)(N1CCOCC1)N1CCOCC1 (stereo unspecified)
  . | 1.0
> CCCNC(=O)c1c(N)n(Cc2ccc3c(c2)OCO3)c2nc3ccccc3nc12
  i | 6.7
> O=C(C1CCC(=O)N1Cc1ccc(F)cc1)N1CCC2(CC1)OCCO2 (stereo unspecified)
  . | -0.1
> CC12CN3CC(C)(CN(C1)C31CCSCC1)C2=O
  . | 0.6
> Cn1c(=O)cc(OCC(=O)N2CCN(C3CCCCC3)CC2)c2ccccc21
  i | 1.2
> CN(C)[C@@H]1C(=O)C(C(N)=O)=C(O)[C@@]2(O)C(=O)C3=C(O)c4c(O)cccc4[C@@](C)(O)[C@H]3C[C@@H]12
  i | -0.4

# Retrieved by compound from above (2):
# Below each compound – VCAM-1 rise | Proteasome disasm
> CCN1CCC2(CCNC2)C1 (stereo unspecified)
  . | 0.9
> Cn1c2ccccc2c2c(C(=O)N3CCC4(CC3)OCCO4)cn(C3CCCCC3)c(=O)c21
  . | 4.3

# One compound at a time (already shown). Order of screens: VCAM-1 rise	Proteasome disasm
# Entry for Cn1c(O)c(C=NCc2ccco2)c(=O)n(C)c1=O → i	-1.4
# Entry for Cc1ccc(C2N(c3cc(C)on3)C(=O)C3CCCN32)cc1 (stereo unspecified) → .	1.1
# Entry for Cn1c2ccccc2c2c(C(=O)N3CCC4(CC3)OCCO4)cn(C3CCCCC3)c(=O)c21 → .	4.3

# Additional structures.
# Below each compound – VCAM-1 rise | Proteasome disasm
> CC(C)(C)c1ccc(O)c(CN2CCN(c3ccccc3)CC2)c1
  . | -0.1
> CCCCOc1ccc(CN2CCN(CCO)CC2)cc1
  i | -1.8
> CCCCn1c(O)c(C(C)=NC(Cc2c[nH]c3ccccc23)C(=O)OC)c(=O)[nH]c1=O (stereo unspecified)
  i | 1.1
> CN1CCN(C(=O)OC2c3nccnc3C(=O)N2c2ccc(Cl)cn2)CC1 (stereo unspecified)
  i | 1.6
> CCOc1ccc(-n2c(O)c(C=NCCN(CC)CC)c(=O)[nH]c2=O)cc1
  i | 0.9
> CC(=O)OC1C2CCCC1C(N1CCCC1)CC2 (stereo unspecified)
  . | -1.0
> COc1ccc(OC)c([C@@H](O)[C@H](C)NC(C)(C)C)c1
  i | 0.3
> O=C1CC(N2CC=C(c3ccccc3)CC2)C(=O)N1c1ccc(F)cc1 (stereo unspecified)
  . | 0.3
> Cn1c[n+](C)cc1C(O)c1ccccc1 (stereo unspecified)
  . | -2.8
> O=C(NC(Cc1ccccc1)C(=O)N1CCC2(CC1)OCCO2)C1CCCCC1 (stereo unspecified)
  . | 0.6
> CC(C)NS(=O)(=O)c1ccc(OCC(=O)N2CCN(C)CC2)cc1
  . | -0.9
> COCCOC(=O)C1=C(N)Oc2c(c(=O)oc3ccccc23)C1c1ccncc1 (stereo unspecified)
  i | -1.0
> CC(C)c1ccc(O)c(CN2CCN(c3ccccc3)CC2)c1
  . | 0.7
> CCOC(=O)N(c1ccccc1)P1(=S)OCCO1
  . | -0.5
> Cc1ccc(S(=O)(=O)NC(CC(=O)N2CCC3(CC2)OCCO3)c2ccco2)cc1 (stereo unspecified)
  . | -0.8
> O=C(CCn1c(=O)oc2ccccc21)N1CCC2(CC1)OCCO2
  . | -0.3
> NCC1(CC(=O)O)CCCCC1
  i | 0.2
> O=C1C2CCCN2C(c2cccnc2)N1c1cccc(Cl)c1 (stereo unspecified)
  . | 0.8
> COc1cccc(OC)c1C1=NCC(=O)Nc2c1oc1ccc(Br)cc21
  . | 0.1
> CC(=O)N1CCC2(CC1)CC(=O)c1cc(OCC(=O)N3CCN(C)CC3)ccc1O2
  . | 0.8
> O=C(C1CC(=O)N(C2CCCCC2)C1)N1CCC2(CC1)OCCO2 (stereo unspecified)
  . | -2.5
> O=C(Cc1ccccc1)OCn1nnc2ccccc2c1=O
  . | -1.3
> O=C(NC1CC1)C1CSC(c2cccnc2)=N1 (stereo unspecified)
  . | 0.0
> O=C(CCc1nc(-c2ccccc2F)no1)N1CCC2(CC1)OCCO2
  . | 1.9
> Clc1ccc(COC(Cn2ccnc2)c2ccc(Cl)cc2Cl)cc1 (stereo unspecified)
  i | -0.7
> CCc1ccc(OCCCN=C(C)c2c(O)n(C)c(=O)n(C)c2=O)cc1
  i | 1.9
> CCOc1cccc(C2NCc3ccccc3-n3cccc32)c1O (stereo unspecified)
  . | -1.6
> O=c1[nH]c(=O)n(Cc2ccccc2)c(O)c1C=NCCCO
  i | 5.8
> COc1ccccc1-n1c(O)c(C=NCc2ccc3c(c2)OCO3)c(=O)[nH]c1=O
  i | -1.1
> Cc1ccc(C)c(C2(O)CC(C)N(C)CC2C)c1 (stereo unspecified)
  i | 1.5
> O=C(NCC(c1cccnc1)N1CCN(c2ccccc2F)CC1)Oc1ccccc1 (stereo unspecified)
  . | 2.7
> Cc1sc2ncn(CC(=O)N3CCC4(CC3)OCCO4)c(=O)c2c1C
  . | 0.7
> Cc1ccc2c(c1)C1CN(C)CCC1N2C(=O)c1ccc(Br)o1 (stereo unspecified)
  . | 5.4
> Cc1ccc(Cn2c(C)c3cnn(CC(=O)N4CCC5(CC4)OCCO5)c(=O)c3c2C)cc1
  i | -1.8
> C=CCOC(=O)C1=C(C)OC(N)=C(C(=O)OCC)C12C(=O)N(CC(N)=O)c1ccccc12 (stereo unspecified)
  . | 2.1
> Cc1cccc(-n2c(O)c(C=NCCCN3CCOCC3)c(=O)[nH]c2=O)c1C
  i | -3.2
> O=C(CN1CCN(Cc2ccc(Cl)cc2)C1=O)N1CCC2(CC1)OCCO2
  . | ?
> COc1ccc(C(CC(=O)N2CCC3(CC2)OCCO3)NS(=O)(=O)c2ccc(C)cc2)cc1 (stereo unspecified)
  . | 1.2
> Cn1c(C(=O)O)c(CC(=O)N2CCN(Cc3ccccc3)CC2)c2ccccc21
  . | 1.1
> CCCC(C)C1C(C#N)=C(N)Oc2c1c(=O)oc1ccccc21 (stereo unspecified)
  i | -0.1
> COC1=CC(=O)OC(/C=C/c2ccccc2)C1 (stereo unspecified)
  i | 0.8
> C#C[C@]1(O)CC[C@H]2[C@@H]3CCC4=CC(=O)CC[C@]4(C)[C@H]3CC[C@@]21C
  i | -0.1
> CC(C)CC(NC(=O)C1CCCCC1)C(=O)N1CCC2(CC1)OCCO2 (stereo unspecified)
  . | 0.3
> O=C(CCS(=O)(=O)c1ccc(Br)cc1)N1CCC2(CC1)OCCO2
  . | -0.1
> Cc1cccc(C2=NCC(=O)N(CC(=O)NCc3ccco3)c3sc4c(c32)CCCC4)c1
  i | 1.3
> O=C1C2CCCN2C(c2cccs2)N1c1ccccn1 (stereo unspecified)
  . | 0.4
> O=C(CCCN1CCC2(CC1)C(=O)NCN2c1ccccc1)c1ccc(F)cc1
  i | -0.5
> O=C(Cn1ncc2ccccc21)N1CCC2(CC1)OCCO2
  . | -2.1
> CCOC(=O)c1c(C)n(Cc2ccccc2)c2ccc(OCC(O)Cn3nc(C)nc3C)cc12 (stereo unspecified)
  . | -1.3
> O=C1CC[C@@]2(O)[C@H]3Cc4ccc(O)c5c4[C@@]2(CCN3CC2CC2)[C@H]1O5
  i | 0.7
> N=c1c2c(n(Cc3ccc(Cl)cc3Cl)c3c1CCC3)CCCC2
  . | 1.4
> O=C(c1ccc(CS(=O)(=O)c2ccccc2)o1)N1CCC2(CC1)OCCO2
  i | 1.2
> C[C@H]1CCCC(=O)CCC/C=C/c2cc(O)cc(O)c2C(=O)O1
  i | 1.1
> CC(C)C[C@H](NC(=O)[C@@H]1CCCN1C(=O)[C@@H](N)Cc1ccc(O)cc1)C(=O)NCC(N)=O
  i | 0.1
> CN1CCC(OC(=O)C2c3ccccc3Oc3ccccc32)CC1
  i | -0.3
> O=C(Cn1ncc2c3ccccc3n(Cc3ccccc3F)c2c1=O)N1CCC2(CC1)OCCO2
  . | 0.5
> COc1cc(OC)cc(-n2nc(C(=O)N3CCC4(CC3)OCCO4)c3ccccc3c2=O)c1
  . | -0.8
> O=C(CN1CCN(Cc2cccc(Cl)c2)C1=O)N1CCC2(CC1)OCCO2
  i | -1.2

# Some of the compounds tested; count on the stated rates, not on these rows.
